# UCH37 inh: inhibitors of human UCH37 deubiquitinase, primary screen, biochemical, Ub-AMC cleavage, fluorescence; Ubiquitin carboxyl-terminal hydrolase isozyme L5 (Homo sapiens), Q9Y5K5; purified proteasome/UCH37; inhibition, % (no concentration beside the values); 330,000 tested, 0.33% active; AID 588478, 2011;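 active = mean of two replicates above 20%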;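 note: 0% = compound-free wells with enzyme and 100% = wells lacking proteasome; stock transfer was 100 nL into about 20 µL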
#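 Schedule: 30 min plus 25 min, room temperature / Material: human UCH37 within purified proteasomes / Technique: AMC fluorescence intensity at 355/460 nm / Buffer or medium: pH 7.4 Tris-HCl (50 mM) with ovalbumin, ATP-MgCl2, DTT / Controls: wells without proteasome as full block, compound-free enzyme plus substrate as uninhibited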
# B2AR ag: beta2AR agonists driving receptor internalization, primary screen, cell-based, FAP fluorogen, flow cytometry; Beta-2 adrenergic receptor (Homo sapiens), P07550; Am2.2-beta2AR cells; reference of the scale not given here; response, % (no concentration beside the values); 340,000 tested, 0.43% active; AID 504454, 2011;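 active = response above a set limit, near 3 SD of response in nonfluorescent compounds, cut at about 42% in these data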;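 note: stock transfer was 100 nL into about 11 µL; a reference agonist was the positive control; negative values mostly stem from fluorescent compounds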
# Target sequence (P07550 whole entry, looked up): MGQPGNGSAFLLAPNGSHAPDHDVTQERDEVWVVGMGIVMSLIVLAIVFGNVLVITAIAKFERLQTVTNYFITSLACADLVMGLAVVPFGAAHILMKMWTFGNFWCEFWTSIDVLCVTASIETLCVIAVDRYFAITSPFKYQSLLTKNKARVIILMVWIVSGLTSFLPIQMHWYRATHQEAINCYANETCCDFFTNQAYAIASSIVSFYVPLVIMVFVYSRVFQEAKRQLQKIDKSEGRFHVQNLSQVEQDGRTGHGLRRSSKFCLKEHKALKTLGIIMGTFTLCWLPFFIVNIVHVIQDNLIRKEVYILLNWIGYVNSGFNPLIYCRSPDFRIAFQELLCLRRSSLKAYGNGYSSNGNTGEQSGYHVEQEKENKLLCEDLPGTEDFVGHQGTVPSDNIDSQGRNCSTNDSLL
# ALR inh: inhibitors of human ALR sulfhydryl oxidase, primary screen, biochemical, H2O2 detection, HRP-luminol luminescence, single point | FAD-linked sulfhydryl oxidase ALR (Homo sapiens), P55789 | purified ALR, DTT oxidation | inhibition, % (test concentration not listed) | 290,000 tested, 3.8% active | AID 485317, 2010;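 active = mean and each replicate at 75% or more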;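 note: stock transfer was 7.5 nL into about 7.5 µL; 0% = neutral wells and 100% = wells with inactivated enzyme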
# Target sequence (P55789 whole entry, looked up): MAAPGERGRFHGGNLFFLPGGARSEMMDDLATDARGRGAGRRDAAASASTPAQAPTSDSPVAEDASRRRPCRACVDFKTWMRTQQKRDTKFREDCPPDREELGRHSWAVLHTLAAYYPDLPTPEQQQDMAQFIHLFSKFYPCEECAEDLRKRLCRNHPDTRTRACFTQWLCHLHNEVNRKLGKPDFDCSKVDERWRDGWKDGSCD
# HNF4A DNA FP: change in binding of human HNF4A to DNA, primary screen, biochemical, fluorescence polarization, FITC-DNA; Hepatocyte nuclear factor 4-alpha (Homo sapiens), P41235; 1 h; activity change, % at 10 µM; 360,000 tested, 0.3% active; AID 1224865, 2016; in the data active = activity change above about 30%, passing the limit was not always enough;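 note: controls were the assay level and a saturating level of protein; the project sought stronger binding though the title names inhibitors; some compounds called inactive have numbers as strong as hits; positive values seem to mean higher polarization but the record does not say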
# Target sequence (P41235 whole entry, looked up): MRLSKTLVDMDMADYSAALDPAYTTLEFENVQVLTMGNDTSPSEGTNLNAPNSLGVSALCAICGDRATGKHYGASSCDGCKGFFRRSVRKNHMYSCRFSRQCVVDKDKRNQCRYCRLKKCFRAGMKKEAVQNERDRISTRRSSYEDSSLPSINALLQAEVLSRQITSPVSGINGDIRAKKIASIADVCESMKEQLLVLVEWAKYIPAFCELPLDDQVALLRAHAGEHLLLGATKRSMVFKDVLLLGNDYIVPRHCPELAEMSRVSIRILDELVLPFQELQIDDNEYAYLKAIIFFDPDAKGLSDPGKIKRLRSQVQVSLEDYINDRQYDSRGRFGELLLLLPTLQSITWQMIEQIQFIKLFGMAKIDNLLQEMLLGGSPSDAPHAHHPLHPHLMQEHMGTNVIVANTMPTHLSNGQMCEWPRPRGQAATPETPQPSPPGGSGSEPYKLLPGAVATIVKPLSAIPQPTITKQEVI
# FGF22 binding: binders of human FGF22 protein, primary screen, FGF22 synaptogenesis inhibitor project, biophysical, thermal shift, single point; recombinant FGF22 thermal shift, SYPRO orange fluorescence; percent of sucrose octasulfate shift, DMSO zero; calls only at 9.99 µM; Fibroblast growth factor 22 (Homo sapiens), Q9HCT0; 340,000 tested, 1.5% active; AID 651658, 2012;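 active = melting point raised past a set limit in the mean and every replicate; three in four hits are not shown here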
# Ecoli growth: E. coli growth inhibition, primary screen, OD600; Escherichia coli growth, 23 h; stronger effect = lower value; 330,000 tested, 0.21% active; OD600 absorbance (concentration not given with the values);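 active = OD600 absorbance below the run mean of sample wells minus 3.6 SD, in any replicate, cut at about 0.56 in these data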;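 note: stock transfer was 300 nL into about 60 µL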
# LANA-H2B inh: blockers of LANA interaction with H2A/H2B – biochemical, FP readout, HTS, primary screen; Protein LANA1 (Human herpesvirus 8 type P (isolate GK18)), Q9QR71; AID 2629, 2010; inhibition, % (test concentration not listed); cell-free LANA-H2A/H2B peptide, fluorescence polarization; 320,000 tested, 0.6% active; in the data active = inhibition mostly above about 10%, no sharp cut-off; inactive = mostly below about 6.7%;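 note: stock transfer was 7.5 nL into about 10 µL; 0% = median of vehicle wells and 100% = median of positive control wells; one replicate is shown; the record names a cut of 25% in any replicate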
# The depositor's hits bear a star; i = inactive; · = no result given; & = joins results of further samples. Some of the compounds tested; rates above refer to the full screens.
SMILES,UCH37 inh,B2AR ag,ALR inh,HNF4A DNA FP,FGF22 binding,Ecoli growth,LANA-H2B inh
C=CCN=C(NC#N)SCc1ccccc1Cl,0.3,-1,·,-4.4,·,0.7,2.8
CC1(C)CC(=O)C=C(Nc2ccc(S(N)(=O)=O)cc2)C1,6.9,1,-1,-5.1,·,0.71,-5.0
CC1CCCN(C(=O)CN2CCC(c3nc4ccc(Cl)cc4[nH]3)CC2)C1 (centres undefined),3.9,1,-7,4.0,i,0.65,-2.1
CCOC(=O)N1CCN(S(=O)(=O)c2ccc(C(=O)Nc3ccc4c(c3)C(=O)NC4=O)cc2)CC1,-316,-6,·,2.3,i,0.7,·
CN(C)/C=C/C(=O)c1ccc(Cl)cc1Cl,5.0,-2,38,-1.1,i,0.64,-7.0
Cc1n[nH]c(=S)n1/N=C/c1ccc(OCc2ccc(Cl)cc2)cc1,·,0,·,-1.8,·,·,3.0
O=[N+]([O-])c1cccc(N(CC(O)CN2CCCCC2)S(=O)(=O)c2ccccc2)c1 (centres undefined),4.0,11,3,-0.1,i,0.65,1.5
CCOC(=O)c1ccc(N=c2sc(C(=O)OC)cc(=O)n2CCCN2CCOCC2)cc1,6.2&4.2,17&13,-3&-6,-2.4&1.8,i,0.75&0.77,-0.5&4.6
O=C(CC1(O)C(=O)N(CCc2ccccc2)c2ccccc21)c1ccccn1 (centres undefined),0.1,1,-1,1.0,i,0.66,-2.5
CCCCOc1ccc(C(=O)OCC(=O)Nc2cc(C)on2)cc1,0.7,-2,-8,2.2,i,0.71,1.0
COCCn1c(-c2ccc(C)cc2)nc2oc3cc(OC)ccc3c(=O)c2c1=O,4.6,0,-3,3.3,i,0.62,8.6
COc1ccc(NC(C)=O)cc1NS(=O)(=O)c1ccc2c(c1)OCCO2,-1.9,-4,-9,-2.8,i,0.68,-2.1
O=C(NCCCN1CCCC1=O)c1cccc(Oc2ccccc2)c1,-0.3,-6,-4,-1.5,i,0.74,-1.6
OC(CNCC1CCCO1)Cn1c2ccccc2c2ccccc21 (centres undefined),2.0,3,-11,-3.1,·,0.73,-4.8
COc1nc(Nc2ccccc2F)nc(OC)n1,1.8,2,-3,2.1,i,0.66,0.7
Cc1cc(C2C(C#N)=C(N)SC(N)=C2C#N)c(C)s1,·,-31,99*,85,·,·,-11
Clc1ccc(-c2csc(N/N=C\c3cccnc3)n2)cc1,·,2,28,3.3,i,·,3.1
COC(=O)c1cccnc1-n1c(=O)c2cccnc2n(CC(=O)Nc2ccc(Br)cc2)c1=O,-0.2,5,-3,-1.6,i,0.69,-0.5
COC(=O)[C@@H](Cc1ccccc1)NC(=O)[C@H]1CCC(=O)N1C(=O)OCc1ccccc1,2.3,15,·,-0.1,i,0.7,5.0
Cc1ccccc1NC(=O)NCC1CCCO1 (centres undefined),-4.0,-7,1,-0.3,·,0.74,3.3

# Retrieved one by one from the list above (2):
SMILES,UCH37 inh,B2AR ag,ALR inh,HNF4A DNA FP,FGF22 binding,Ecoli growth,LANA-H2B inh
C=CCN=C(NC#N)SCc1ccccc1Cl,0.3,-1,·,-4.4,·,0.7,2.8
COC(=O)c1cccnc1-n1c(=O)c2cccnc2n(CC(=O)Nc2ccc(Br)cc2)c1=O,-0.2,5,-3,-1.6,i,0.69,-0.5

# Part of the list above in order of length of the SMILES, descending:
SMILES,UCH37 inh,B2AR ag,ALR inh,HNF4A DNA FP,FGF22 binding,Ecoli growth,LANA-H2B inh
COC(=O)c1cccnc1-n1c(=O)c2cccnc2n(CC(=O)Nc2ccc(Br)cc2)c1=O,-0.2,5,-3,-1.6,i,0.69,-0.5
Cc1cc(C2C(C#N)=C(N)SC(N)=C2C#N)c(C)s1,·,-31,99*,85,·,·,-11
Clc1ccc(-c2csc(N/N=C\c3cccnc3)n2)cc1,·,2,28,3.3,i,·,3.1
Cc1ccccc1NC(=O)NCC1CCCO1 (centres undefined),-4.0,-7,1,-0.3,·,0.74,3.3

# Additional compounds.
SMILES,UCH37 inh,B2AR ag,ALR inh,HNF4A DNA FP,FGF22 binding,Ecoli growth,LANA-H2B inh
O=C(CN1CCCCC1)Nc1ccccc1C(=O)NC1CC1,-2.1,-4,·,1.8,i,0.62,·
CC(Oc1ccccc1[N+](=O)[O-])C(=O)N/N=C/c1ccoc1 (centres undefined),·,-15,-2,-0.7,i,·,-3.4
CCCCOC(=O)C1=C(N)N2C(=O)C(C)SC2=C(C(=O)OCC)C1c1ccc(O)c(OC)c1 (centres undefined),3.3,-1,-5,-0.7,i,0.68,-1.5
Cc1noc(C)c1COC(=O)c1ccccc1Sc1ccccc1C#N,3.3,-5,·,0.3,·,0.71,2.8
O=C(Nc1ccccc1F)C1COc2ccccc2O1 (centres undefined),0.8,5,0,2.8,i,0.64,0.9
COc1ccc(-c2cc3c(=O)n(CC(=O)NCCCN4CCN(Cc5ccccc5)CC4)ncn3n2)cc1,-8.4,0,-18,-2.7,i,0.68,-1.9
COc1ccc(C(CNC(=O)COc2ccccc2-c2ccccc2)N2CCOCC2)cc1 (centres undefined),2.2,-11,-36,2.9,i,0.72,6.1
CCCN(CCC)CCCNC(=O)C1c2cc(OC)c(OC)cc2C(=O)N(C)C1c1cccs1 (centres undefined),1.0,-9,-2,7.3,·,0.73,0.2
CC(=O)NCCOc1nc(N(C)C)nc(N(C)C)n1,-0.6,6,-5,3.6,·,0.65,3.9
CCOc1cc(/C=N/NC(=O)c2ccc(N(C)S(=O)(=O)c3ccccc3)cc2)ccc1OC,·,5,·,1.8,i,·,2.6
CC(OC(=O)c1n[nH]c2ccccc12)C(=O)NC1CCCCC1C (centres undefined),-0.5,-5,·,2.6,i,0.66,6.5
CNC(=O)C(=O)Nc1c(C)cc(C)cc1C,1.1,-6,-9,4.6,·,0.69,4.4
O=C(O)c1ccccc1NC(=O)c1ccccc1-c1ccccc1C(=O)O,-0.3,-4,-6,0.7,i,0.68,0.5
CC(NC(=O)c1ccco1)C(=O)N1CCCCC1 (centres undefined),5.3,-3,0,-4.4,i,0.69,-0.8
NC(=O)Cn1cc(/C=N\NS(=O)(=O)c2ccc(F)cc2)c2ccccc21,·,-3,53,3.6,i,·,2.4
Clc1ccc(C(CCN2CCCC2)Cc2ccccc2)cc1 (centres undefined),1.5,4,9,2.1,i,0.64,0.2
O=C(NC(=S)NN1CCCCC1c1cccnc1)c1ccc(Cl)cc1Cl (centres undefined),1.8,-1,2,-4.5,i,0.61,2.1
COc1ccc2ccc3ccc(OC)c(OC(C)=O)c3c2c1,·,1,·,-1.4,i,·,·
CCCC/C=C1\CCc2c([nH]c3ccccc23)C1=O,-5.6,-3,-22,-2.0,i,0.72,2.8
CCC(C)c1ccccc1NC(=O)CN1CCN(C/C=C/c2ccccc2)CC1 (centres undefined),4.2,18,-7,1.1,i,0.69,-0.7

# Filtered by structure: the compounds so far with a furan ring, fused or not (2)
SMILES,UCH37 inh,B2AR ag,ALR inh,HNF4A DNA FP,FGF22 binding,Ecoli growth,LANA-H2B inh
CC(Oc1ccccc1[N+](=O)[O-])C(=O)N/N=C/c1ccoc1 (centres undefined),·,-15,-2,-0.7,i,·,-3.4
CC(NC(=O)c1ccco1)C(=O)N1CCCCC1 (centres undefined),5.3,-3,0,-4.4,i,0.69,-0.8

# Later entries
SMILES,UCH37 inh,B2AR ag,ALR inh,HNF4A DNA FP,FGF22 binding,Ecoli growth,LANA-H2B inh
Cc1ccc(S(=O)(=O)NC(Cc2c[nH]c3ccccc23)C(=O)O)cc1 (centres undefined),0.3,4,-16,1.5,·,0.7,-2.7
CCN1CCN(c2ccc(S(=O)(=O)N(CC)CC)cc2[N+](=O)[O-])CC1,2.0,2,·,3.4,·,0.67,0.6
Cc1cc(C)c(NC(=O)C2CCCO2)c(C)c1 (centres undefined),4.6,-2,-3,-2.4,i,0.67,2.1
CC(C)N1CCc2c(sc(NC(=O)c3cc(-c4cccs4)nc4ccccc34)c2C(N)=O)C1,·,-42,-8,12,·,·,-6.2
COc1ccc(CN2CCC(=O)N([C@H](CO)c3ccccc3)CC2)cc1,-1.6,-6,-6,-1.9,i,·,3.9
CC(O)CNC(=O)c1ccc(-c2nn(C)c(=O)c3ccccc23)cc1 (centres undefined),4.7,-3,-7,2.0,·,0.71,0.3
COc1ccc(/C(N)=N/OC(=O)C2CCC(=O)N2S(=O)(=O)c2ccc(C)cc2)cc1OC (centres undefined),1.4,1,-7,6.1,·,0.68,-0.3
COC(=O)C1=C(C)NC(C)=C(C(=O)OC)C1C(=O)OCC(=O)c1ccc(Br)cc1,-5.2,-1,·,-0.5,i,0.64,2.5
O=C(Cc1ccc2c(c1)OCCO2)c1c(O)cc(O)cc1O,-1.7,0,27,1.6,i,0.7,0.2
O=C(CCC1CCCN(C(=O)c2ccsc2)C1)NCc1ccc(F)c(F)c1 (centres undefined),-0.2,0,-10,0.0,i,0.67,-1.3
Cc1ccccc1C(=O)c1c[nH]c(C(=O)NCC2CCCO2)c1 (centres undefined),-0.2,5,-10,-2.9,·,0.7,1.8
CCOC(=O)C1CCN(S(=O)(=O)c2cccc(-c3cn4cc(C)ccc4n3)c2)CC1,-1.0,-18,-4,-1.7,·,0.74,-0.3
CCOC(=O)c1[nH]c(COC(=O)CCOc2ccccc2OC)c(C(=O)OCC)c1C,0.9,-9,3,6.9,·,0.75,-1.3
CCCCn1c(-c2nn(C)cc2Cl)n[nH]c1=S,0.9,11,41,-3.2,·,0.72,-1.2
COc1cc(C2NC(=S)NC(C)=C2C(=O)c2ccccc2)ccc1O (centres undefined),4.2,-11,44,4.0,·,0.72,-1.7
CC(C)CC(=O)NC(=S)NCCc1ccccc1,1.8,-4,1,-0.7,·,0.74,-10.0
Cc1cc(SCC(=O)Nc2ncc(Cl)cc2Cl)nc2ccccc12,3.2,-2,-3,4.7,·,0.68,-2.0
c1ccc(Cc2nnc3sc(-c4cccs4)nn23)cc1,1.4,-10,-18,-0.7,·,0.69,-3.7
CC(C)Oc1ccc(CNC(=O)CCC(=O)N2CCSc3ccccc32)cc1,4.7,-8,0,3.0,i,0.71,2.0
Cc1ccc(NC(=O)CNC(=O)c2ccccc2F)cc1Cl,3.6,-1,-3,8.6,·,0.71,4.8
O=[N+]([O-])c1ccc(Nc2ccccn2)c([N+](=O)[O-])c1,7.0,20,0,-4.2,i,0.7,0.1
CCn1cc(C(=O)NCCCOC)c(=O)c2cc(S(=O)(=O)N3CCC(C)CC3)ccc21,2.8,3,-1,-0.8,i,0.64,-0.4
COc1ccc(-c2nnc(SCC(=O)Nc3nc4ccccc4s3)n2C)cc1,1.7,-3,·,2.3,·,0.68,·
Cc1ccccc1NC1=C(Cl)C(=O)OC1OC(=O)c1ccco1 (centres undefined),3.1,4,16,-1.9,i,0.67,-8.1
CCOC(=O)C1(CC2CC2)CCN(S(=O)(=O)/C=C/c2ccccc2)CC1,2.9,9,-2,-2.9,i,0.69,-1.8
Cc1nn(-c2ccccc2)c(C)c1NS(=O)(=O)c1ccccc1,-0.2,-1,6,3.8,·,0.65,-1.4
Cc1ccc(C(C)NC(=S)NCc2ccc(F)cc2)cc1C (centres undefined),3.3,-3,-9,0.8,i,0.71,-4.3
Cc1cccc(NC(=O)CCc2nc3sc4c(c3c(=O)[nH]2)CCCC4)c1,2.8,-7,-7,1.6,i,0.7,-0.7
COc1ccc(CSc2nnnn2C)cc1[N+](=O)[O-],3.9,6,·,3.0,·,0.67,-7.1
O=C(Cc1ccc([N+](=O)[O-])cc1)Nc1ccon1,1.0,-3,-12,1.6,i,0.71,0.2
COc1ccc(NC(=O)NCc2ccc3c(c2)OCO3)c(OC)c1,-0.3,-1,-3,-3.0,i,0.67,-7.5
